Screening results as filed in PubChem.
hNpr1 antagonist – antagonists of human natriuretic peptide receptor Npr1; P16066; HEK293 hNpr1 GloSensor cGMP, ANP-stimulated luminescence; Potency, µM (titrated, usually from 46.3 µM), without a hit: at the highest dose activity change, negative = inhibition, actives largely listed as inhibitors; 1.6% of 76,000 active; active = well fitted inhibition curve with a large enough effect; inconclusive = small, poorly fitted or top-dose-only effect; inactive = no such curve, though single readings can be large or run the other way;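 also: nearly all actives have a fitted effect of over 60% in size; nearly all hits also lower the signal before the agonist is added; a reference antagonist and vehicle were the controls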
Target sequence (P16066 whole entry, looked up): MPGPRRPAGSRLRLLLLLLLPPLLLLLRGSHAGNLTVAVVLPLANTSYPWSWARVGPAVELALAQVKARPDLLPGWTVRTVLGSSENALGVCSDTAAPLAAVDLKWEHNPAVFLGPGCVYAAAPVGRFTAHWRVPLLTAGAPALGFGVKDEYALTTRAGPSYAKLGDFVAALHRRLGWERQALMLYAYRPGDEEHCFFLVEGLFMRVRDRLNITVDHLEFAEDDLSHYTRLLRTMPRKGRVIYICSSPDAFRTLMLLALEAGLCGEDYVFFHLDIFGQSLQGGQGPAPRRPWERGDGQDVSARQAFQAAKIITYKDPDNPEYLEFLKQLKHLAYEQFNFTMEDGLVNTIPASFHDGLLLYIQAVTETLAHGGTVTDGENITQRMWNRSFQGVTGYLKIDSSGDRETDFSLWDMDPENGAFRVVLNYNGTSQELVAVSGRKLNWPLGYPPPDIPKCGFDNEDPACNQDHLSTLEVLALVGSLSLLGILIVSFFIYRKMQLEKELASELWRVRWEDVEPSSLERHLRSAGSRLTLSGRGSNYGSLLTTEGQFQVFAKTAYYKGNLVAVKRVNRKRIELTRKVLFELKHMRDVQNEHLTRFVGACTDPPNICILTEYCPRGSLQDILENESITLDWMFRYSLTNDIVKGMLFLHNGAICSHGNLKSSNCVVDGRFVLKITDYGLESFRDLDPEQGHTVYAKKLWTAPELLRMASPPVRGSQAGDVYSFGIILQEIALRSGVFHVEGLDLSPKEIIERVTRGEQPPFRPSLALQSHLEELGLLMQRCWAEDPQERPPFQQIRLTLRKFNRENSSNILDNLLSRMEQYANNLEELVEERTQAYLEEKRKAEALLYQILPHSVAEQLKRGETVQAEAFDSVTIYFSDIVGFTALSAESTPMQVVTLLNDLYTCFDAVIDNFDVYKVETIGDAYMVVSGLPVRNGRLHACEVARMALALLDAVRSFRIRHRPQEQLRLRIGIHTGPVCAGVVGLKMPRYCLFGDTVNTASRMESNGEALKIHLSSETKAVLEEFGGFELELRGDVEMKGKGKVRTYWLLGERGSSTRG
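Compound pre-incubated 30 min at room temperature on GloSensor-loaded HEK293 cells stably carrying hNpr1 and the pGS-40F cGMP biosensor. Stimulation uses hNppA at 0.1 nM final; luminescence is taken at baseline and 20 min post-agonist.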
An asterisk follows results filed as active; ? = inconclusive; [ ] = another dose, or the depositor's remark. % is scaled to controls: 0 for no effect and ±100 for the full control effect; potency is read from the fitted curve at half-maximal effect. An excerpt; rates above refer to the full screens.

hNpr1 antagonist	smiles
2%	Cc1nocc1C(=O)N1CCCn2ccnc2C1c1cnn(C)c1 (stereo not drawn)
4%	COc1ccc(-n2c(=O)c3c(n2Cc2ccccc2)CN(C(=O)c2cccc(C#N)c2)CC3)cc1
4%[70.6 µM]	O=C(O)c1ccc(CN2CCOC[C@H]2c2ncc(-c3ccc(F)cc3)[nH]2)cc1
0%[70.6 µM]	Cn1c([C@H]2CCN(S(=O)(=O)Cc3ccccc3)C2)nc2ccccc21
3%	CCC(=O)N1CCc2nc(N3CCN(C(=O)CCOC)CC3)sc2C1
-5%	OCc1ccc(CN2CC[C@@H](c3ccc4ccccc4c3)[C@H](O)C2)o1
-10%[70.6 µM]	O=C(c1ccccc1)N1CCC(N2CC3CCCN3C2=O)CC1 (stereo not drawn)
6%	CSCc1noc(CNC(=O)CN2CCN(c3ncccn3)CC2)n1
-1%	O=C(c1cccs1)N1CCC(Nc2cccnc2)C1 (stereo not drawn)
-1%	O=C(N1CCN(Cc2ccccc2)CC(O)C1)C1(c2ccccc2F)CC1 (stereo not drawn)
-3%	CCC(C)NC(=O)C1COC2(CCN(C(=O)CC(C)(C)C)CC2)N1C(=O)c1ccc(OC)cc1 (stereo not drawn)
-1%	COCC(=O)N1CCN(C2CCN(CCc3ccccc3)C2=O)CC1 (stereo not drawn)
0%	CN(C1CCCc2ccccc21)S(=O)(=O)c1cccc(C(F)(F)F)c1 (stereo not drawn)
-1%[70.6 µM]	CC1(C)[C@H](Cc2cc(CN3CCOCC3)on2)C[C@@H]1NS(=O)(=O)Cc1ccccc1
7%	Cn1nc(C(F)(F)F)c(Cl)c1C(=O)N[C@@H]1CCNC[C@H]1O

Entries listed so far containing an aryl methoxy group, in the order listed:
hNpr1 antagonist	smiles
4%	COc1ccc(-n2c(=O)c3c(n2Cc2ccccc2)CN(C(=O)c2cccc(C#N)c2)CC3)cc1
-3%	CCC(C)NC(=O)C1COC2(CCN(C(=O)CC(C)(C)C)CC2)N1C(=O)c1ccc(OC)cc1 (stereo not drawn)

The results go on.
hNpr1 antagonist	smiles
-14%	CCc1cccc(NC(=O)c2cc3n(n2)CC(c2ccc4c(c2)OCO4)OC3)c1 (stereo not drawn)
-6%	Cc1ccc(NC(=O)CC2CCCN(c3cnn(CC4CC4)c(=O)c3)C2)cc1C (stereo not drawn)
-6%[70.6 µM]	CNC(=O)CCn1ncc2cc(OCc3ccccc3-c3cc(F)cc(OC)c3)ccc21
12%	O=C(NCc1cccs1)c1nc(-c2cccnc2)c2cnccn12
2%	COc1ccc(S(=O)(=O)N2C[C@@H](Oc3ccccc3)C[C@@H]2C(=O)N2CCOCC2)cc1
-6%	Cc1nc(-c2c3n(c(=O)n(Cc4ccccc4Cl)c2=O)CCCCC3)no1
-1%	COC[C@H]1NC(=O)CC[C@H]1C(=O)Nc1ccc(N2CCOCC2)cc1
1%	COCC(=O)N[C@@H]1CN(S(C)(=O)=O)CC[C@@H]1c1nc(C)no1
2%	OC1(c2cccnc2)CCN(Cc2ccc(-n3ccnc3)cc2)CC1
-13%	COc1ccc(CN2CCOc3ccc(C(=O)NCc4ccc(C)cc4)cc3C2)cc1OC
-29%	O=C(c1cccc(F)c1)N1CCC(CCOc2ccc(F)cc2)C1 (stereo not drawn)
-2%	COc1cccc(C(=O)N2CC(c3nnc(-c4ccc(C)cc4)o3)C3(CCOCC3)C2)c1C (stereo not drawn)
2%	CN1CCN(c2nc3c(c(=O)[nH]2)CCN(Cc2ccccc2)CC3)CC1
-4%	COc1cccc(C(=O)N2CCc3nc(C)nc(-c4ccc(Cl)cc4)c3CC2)c1
4%	COc1ccc(N2Cc3c(NCc4ccc5c(c4)OCO5)ncnc3N(C)CC2=O)cc1
-2%	CN1C(=O)C(c2ccccc2)CC12CCN(C(=O)c1ccc(F)cc1)CC2 (stereo not drawn)
-11%	COc1cccc(S(=O)(=O)N2CCC3(CC2)C(OC)C(=O)N3c2cccc(F)c2)c1 (stereo not drawn)
4%	Cc1cnc(C(=O)N2CCCCCNC(=O)[C@@H]3CCC[C@@H]32)cn1
0%	CCn1cnnc1CC1CCN(C(=O)NC)C1 (stereo not drawn)
17%	CS(=O)(=O)N1C[C@H]2CCN(Cc3ccc(F)cc3Cl)C[C@H]21
1%	CCN1c2cc(C(=O)Nc3cccc(Cl)c3)ccc2C(=O)N2CCCC21 (stereo not drawn)
?	COC(=O)C1=C(C)N=C2SC=C(CC(=O)N3CCC(C)CC3)N2C1c1ccccc1Cl (stereo not drawn)
-2%	CN1C(=O)C(CC(=O)N2CC(O)C2)(Cc2ccccc2)c2ccccc21 (stereo not drawn)
1%	COc1ccc(C(=O)Nc2nc3c(s2)C[C@@H]2[C@](C)(CO)[C@H](O)CC[C@@]2(C)[C@@H]3CC(=O)NCc2ccco2)cc1
1%	Cc1cc(=O)n(CC(=O)Nc2cccc(C#N)c2)c(N2CCOCC2)n1
0%	Cc1cccc(C(=O)NC2CCN(c3cnn(C)c(=O)c3)CC2)c1
-3%	CCc1nncn1C1CCN(S(=O)(=O)c2ccc(OC)c(Cl)c2)CC1
-4%	CS(=O)(=O)N(C1CC1)C1CCOC2(CCN(C(=O)CCc3ccccc3)CC2)C1 (stereo not drawn)
3%	CN1CCN(c2nc3c(c(=O)[nH]2)CCN(Cc2cccc(C#N)c2)CC3)CC1
1%[70.6 µM]	COCCn1c(C)nnc1-c1cc(-c2cccc(O)c2)ccn1
-16%	Cc1ccccc1CNC(=O)[C@H]1CCC[C@H]1NC(=O)c1ccncc1
-3%	CNc1cccnc1OC1CCN(C(=O)NCCOC)C1 (stereo not drawn)
0%	CCN(CC)C(=O)c1ccc(-c2nnc3ccc(NC(=O)C4CC4)cn23)cc1
-14%	CCN(CC)c1cc(CCC(=O)NCc2cccs2)ccn1
-29%	O=C(NCc1ccco1)c1cc(-c2ccccc2F)cc2c1OCCN2Cc1cccnc1
-1%	Cc1noc(C)c1[S+](=O)([O-])N1CCC2(C1)N=C(c1cccnc1)C(=O)N2 (stereo not drawn)
-3%	Cc1ccc(N2CCC(NC(=O)c3cccc(Br)c3)C2=O)cc1 (stereo not drawn)
6%	COc1ccc(CC(=O)N[C@@H]2CN(C)C[C@H]2CN(C)C)cc1Cl
3%	O=C(c1ccoc1)N1CCC(Nc2cccnc2)C1 (stereo not drawn)
4%	COc1ccc(CCC(=O)N2CC[C@H]3C(=O)NCCCCCCN(Cc4ccncc4)[C@@H]3C2)cc1
?	O=C(Nc1ccccc1)c1cc2n(n1)CC(c1ccc3c(c1)OCO3)OC2 (stereo not drawn)
-3%	Nc1nc(C2CC(O)C2)cc(N2CC(N3CCOCC3)C2)n1 (stereo not drawn)
-1%	O=C(NC[C@H]1O[C@@H](CO)[C@@H](O)[C@H]1N1CCN(c2ccc(F)cc2)CC1)c1ccc(F)c(Cl)c1
2%[70.6 µM]	COCCNC(=O)[C@@H]1CCC[C@@H](N(C)C)CN(C)C(=O)C1
-1%	O=C(c1cccc(OC(F)F)c1)N1CCn2nc(C(O)C3CC3)cc2C1 (stereo not drawn)
?	Cc1cc2c(-c3ccc(S(C)(=O)=O)cc3)nc(-c3c(C)noc3C)cc2[nH]1
2%	CCOc1cccc(CNC(=O)[C@H]2CCC[C@H]2NC(=O)c2cnc(C)cn2)c1
4%[70.6 µM]	O=C(NCc1ccnc2[nH]ccc12)C1CCCC1
-16%[70.6 µM]	c1cc(-c2cc3c(ccn3Cc3ccncc3)c(N3CCOCC3)n2)c2cc[nH]c2c1
2%	Cc1cccc(C)c1NC(=O)N1CCC(OC2CCN(Cc3ccccc3)CC2)CC1
0%	COc1ccc(-n2nc(C3CCCN(C(=O)Nc4ccc(Cl)cc4)C3)[nH]c2=O)cc1 (stereo not drawn)
5%[70.6 µM]	Cc1nnn2c(C(=O)Nc3ccc(Cl)cc3Cl)cccc12
-3%	COCCN1C(=O)[C@H]2CN(Cc3ccc(C)cc3)C[C@H]2C1=O
5%	CN(CC1CCOC1)S(=O)(=O)c1ccc2c(c1)CCC2 (stereo not drawn)
-18%	CC(C)(C)c1ccc(C(=O)N2CCN(C(=O)c3nnn4c3COC(c3ccc(F)cc3)C4)CC2)cc1 (stereo not drawn)
-17%	Cc1cc(C)c2[nH]c(C(=O)NCc3ccc(C(=O)N(C)C)o3)c(C)c2c1
3%	COc1ccc(C(C)C)cc1C1c2nc[nH]c2CCN1Cc1nc[nH]c1C (stereo not drawn)
-4%	COc1ccc(CCN2Cc3cc(NC(=O)c4ccccc4)ccc3OCC2=O)cc1
5%	Cc1noc(C)c1CC(=O)N[C@@H]1CN(c2ccncn2)C[C@H]1CN(C)C
-2%	NC(=O)COC[C@@H]1CN(C2CCSCC2)C[C@H]1c1ccncc1

(list continues)
hNpr1 antagonist	smiles
-14%	CCCN(CC1CCOC1)C(=O)Nc1cccc(Cl)c1 (stereo not drawn)
9%	Cc1cc(C)cc(NC(=O)c2ccc3c(c2)N(C)C2CCCN2C3=O)c1 (stereo not drawn)
0%[70.6 µM]	Cc1cc(CNC(=O)[C@@H]2CCC[C@@H](NCC3CC3)CN(C)C(=O)C2)no1
5%	CN(C)CCn1ccnc1C1CCN(S(=O)(=O)c2cnn(C)c2)CC1
6%	COc1ccc(NC(=O)CN2C(=O)NC3(CCOCC3)C2=O)cc1OC
1%	c1nc(N[C@@H]2COCC[C@@H]2OCc2cscn2)c2ccsc2n1
-22%	O=C(NCCC1=CCCCC1)C1CCN(C(=O)c2ncn3c2COC(c2ccccc2)C3)CC1 (stereo not drawn)
-6%[70.6 µM]	O=C(O)Cn1ccc2cc(OCc3cccc(-c4ccccc4O)c3)cnc21
-2%	NC(=O)[C@@H]1CCCN1C(=O)C1CCN(c2nc(-c3ccccc3)nc3c2CCC3)CC1
0%	Cc1ccc(C(=O)NCCc2noc(C3CC3)n2)cc1C
11%[70.6 µM]	COC[C@H]1CCCN1Cc1nc(C2(O)CCN(C3CCCC3)CC2)cs1
?	O=C(CCc1ccccc1)N1CCC2(CC1)N=C(c1cccc(Br)c1)NO2
-18%[70.6 µM]	COc1ccc(-c2cc(-c3cccc(NC(C)=O)c3)cn3cncc23)cc1
-14%[70.6 µM]	COCCN1C[C@H]2CN(Cc3ccc(C(F)(F)F)cc3)CCN2C1=O
-3%	CN(CC1(C)CCOCC1)C(=O)c1c(F)cccc1Cl

Reformatted as tab-separated lines: entries from further up
Molecule	hNpr1 antagonist
CN(C)CCn1ccnc1C1CCN(S(=O)(=O)c2cnn(C)c2)CC1	5%
COc1ccc(NC(=O)CN2C(=O)NC3(CCOCC3)C2=O)cc1OC	6%
c1nc(N[C@@H]2COCC[C@@H]2OCc2cscn2)c2ccsc2n1	1%

(further entries)
hNpr1 antagonist	smiles
-16%	Cc1ccc(NC(=O)c2ccc(Cn3ccn4nc5c(c4c3=O)CCCC5)cc2)cc1C
-7%	COc1cc(OC)cc(-c2onc(C)c2C(=O)NCCc2ccc(F)cc2)c1
-11%	CCOc1ccccc1NC(=O)N1CC[C@@H](c2nc(C)no2)[C@@H](NC(=O)C2CC2)C1
2%[70.6 µM]	O=C(NC1CC1)C1CN(c2ccccc2)C(=O)N1 (stereo not drawn)
?	Cc1nn(-c2ccc(C(F)(F)F)cc2)c(C)c1[C@@H]1C=C[C@@H](NC(=O)C2CCCCC2)C1
4%	Cc1ccsc1C(=O)N[C@@H]1CN(c2ncccn2)C[C@H]1CN(C)C
4%	CCn1ccc(C(=O)N2CCCC(c3nc(-c4ccccc4)no3)CCNC(=O)CC2)n1 (stereo not drawn)
-24%	CC(C)c1noc(-c2cn(C3CCCN(C(=O)c4cccn4C)C3)nn2)n1 (stereo not drawn)
-4%	CN1CCN(c2ccc(-c3cc4c(ccn4C)c(C(=O)NCc4cccnc4)n3)cc2)CC1
-29%	COc1ccc(CNC(=O)Nc2cccc(-c3ccc(N4CCOCC4)nn3)c2)cc1
?	O[C@H]1CCCC[C@@H]1NC1CCN(c2nc3ccc(Cl)cc3s2)CC1
3%	O=C(Nc1ccc(Oc2ccccc2)cc1)N[C@H]1CO[C@H]2[C@@H]1OC[C@@H]2Nc1nccc(-c2cccs2)n1
-7%	CCC1(N2CCN(C(=O)Nc3cc(Cl)ccc3OC)CC2)CCN(C(=O)NC)C1 (stereo not drawn)
-11%	COc1ccc(-c2cc(N3CCC(NC(=O)c4ccc(OC)c(F)c4)CC3)n[nH]2)cc1
?	O=C(NC[C@H]1Cn2c(-c3ccc(Cl)cc3)cnc2CO1)Nc1ccccc1

Structural class: the compounds so far containing a CF3 group
hNpr1 antagonist	smiles
0%	CN(C1CCCc2ccccc21)S(=O)(=O)c1cccc(C(F)(F)F)c1 (stereo not drawn)
7%	Cn1nc(C(F)(F)F)c(Cl)c1C(=O)N[C@@H]1CCNC[C@H]1O
-14%[70.6 µM]	COCCN1C[C@H]2CN(Cc3ccc(C(F)(F)F)cc3)CCN2C1=O
?	Cc1nn(-c2ccc(C(F)(F)F)cc2)c(C)c1[C@@H]1C=C[C@@H](NC(=O)C2CCCCC2)C1

The results go on.
hNpr1 antagonist	smiles
5%[70.6 µM]	O=C(NCc1c[nH]c2ncccc12)C1CCCC1
12%[70.6 µM]	Cc1noc2c(N3CC[S+](=O)([O-])CC3)cc(-c3ccccc3)nc12
0%	Cc1cc(NC(=O)N2C[C@@H](F)C[C@H]2C(=O)N2CCCCC2)ccc1Br
7%	Cc1ccc(C(=O)N2CCn3c(nnc3[C@@H]3C[C@@H](O)CN3Cc3ccccc3)C2)cn1
2%	CCCNC(=O)CCc1cc2cc(OC)ccc2[nH]c1=O

2 entries drawn at random from the list so far:
hNpr1 antagonist	smiles
2%	CCCNC(=O)CCc1cc2cc(OC)ccc2[nH]c1=O
12%[70.6 µM]	Cc1noc2c(N3CC[S+](=O)([O-])CC3)cc(-c3ccccc3)nc12
